Screening data as filed in PubChem.
DUX4 txn inh – blocks DUX4-driven transcriptional activation; 293T-iDUX4 ZSCAN4-Gaussia luciferase reporter, 24 h; hits give low values; activity change, negative = inhibition, % (concentration not given with the values); 0.8% of 37,000 active; AID 1224904;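 active = -10% or lower and over 25 points stronger than a control reporter; inconclusive = -10% or lower with a smaller gap; inactive = above -10%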;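 note: 0% = median of neutral control wells and -100% = median of positive control wells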
DUX4 txn inh difference – further read-out of DUX4 txn inh, marked with its call; Gaussia minus Italica difference, %; measured here: selective DUX4 reporter inhibition;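 worked out from the two reporters; negative = selective loss of the DUX4 reporter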
DUX4 txn inh control – second read-out of DUX4 txn inh, no call of its own (marks repeat the call); activity change, negative = inhibition, %; measured here: Italica tet-on control reporter;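 0 = neutral control and -100 = positive control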
* hit, by the source's call; ? = inconclusive; nt = not tested or not shown; & = joins results of further samples. The list is partial (hit frequency here may not be typical).

SMILES | DUX4 txn inh | DUX4 txn inh difference | DUX4 txn inh control
C[C@@H]1CN([C@@H](C)CO)C(=O)CCCn2nncc2CO[C@H]1CN(C)Cc1ccncc1 | -4 | -7 | 3.3
C/C=C/c1ccc2c(c1)[C@H]1[C@H](CCN1S(=O)(=O)c1ccccc1C)[C@@H](CO)N2 | 6 | -5 | 11
C[C@@H]1CN([C@@H](C)CO)C(=O)CCCn2cc(nn2)CO[C@@H]1CN(C)C(=O)c1ccncc1 | -2 | -3 | 0.6
C/C=C/c1ccc(C2[C@@H]3CN(C(=O)CN4CCOCC4)C[C@H]2N3)cc1 (some centres not stated) | 3&9 | -2&4 | 5.0&4.6
O=C(NC1CCC1)[C@H]1[C@H](CO)[C@H]2Cn3c(ccc(-c4ccncc4)c3=O)[C@H]2N1CCc1ccccc1 | 0 | 8 | -7.4
CC(=O)N1[C@@H](CO)[C@@H](c2ccc(-c3ccc(C#N)cc3)cc2)C12CN(C(=O)C1CC1)C2 | 0 | -7 | 6.9
COc1ccc(S(=O)(=O)Nc2ccc3c(c2)CC(=O)N([C@@H](C)CO)C[C@H](C)[C@@H](CN(C)S(=O)(=O)c2cn(C)cn2)O3)cc1 | -1 | -2 | 1.0
COc1ccc(S(=O)(=O)Nc2ccc3c(c2)C(=O)N([C@@H](C)CO)C[C@H](C)[C@H](CN(C)C(=O)Nc2cccc4ccccc24)OCCCC[C@@H](C)O3)cc1 | 2 | -3 | 4.6
O=C(C[C@@H]1CC[C@H]2[C@@H](COC[C@H](O)CN2C(=O)c2ccncc2)O1)NCc1ccc(-c2ccccc2)cc1 | 7 | 4 | 2.5
COC(=O)C[C@@H]1C[C@H]2c3cc(NS(=O)(=O)c4cccc(OC)c4)ccc3O[C@H]2[C@@H](CO)O1 | 5 | 5 | -0.1
CC(=O)N1[C@H](CO)[C@@H](c2ccccc2)[C@H]1CN(C(=O)NC(C)C)C1CCCC1 | 2 | 2 | -0.5
COCCNC(=O)C[C@@H]1CC[C@@H]2[C@H](COC[C@H](O)CN2S(=O)(=O)c2ccccc2F)O1 | 0 | -7 | 6.7
Cn1cnc(S(=O)(=O)N2CCCCN3[C@@H](CO)[C@H](c4ccc(-c5ccccc5F)cc4)[C@@H]3C2)c1 | 2 | 3 | -1.1
CCNC(=O)Nc1ccc2c(c1)C(=O)N(C)[C@@H]1CC[C@@H](CC(=O)NCCOC)O[C@H]1CO2 | 2 | -1 | 3.3
C[C@H]1CN([C@@H](C)CO)S(=O)(=O)c2ccc(C3=CCCC3)cc2O[C@H]1CN(C)Cc1cccc(C(=O)O)c1 | 4 | 0 | 4.1
CCNC(=O)C[C@@H]1CC[C@H]2[C@@H](COC[C@H](O)CN2C(=O)Nc2cccc(OC)c2)O1 | 3 | 8 | -5.1
O=C(Cc1ccccn1)N[C@H]1CC[C@H](CCNS(=O)(=O)c2cccc(F)c2)O[C@H]1CO | ? | nt | nt
N#C[C@@H]1[C@H](c2ccc(C#Cc3ccccc3F)cc2)[C@@H](CO)N1C(=O)C1CC1 | 1 | 0 | 1.6
COCC(=O)N1CCCCN2[C@H](CO)[C@H](c3ccc(-c4ccc(OC)cc4)cc3)[C@@H]2C1 | 11 | 22 | -12
O=C(C[C@H]1CC[C@@H]2[C@H](COC[C@H](O)CN2C(=O)c2cccnc2)O1)NCc1ccc(Cl)cc1 | 5 | 2 | 3.0
OC[C@@H]1Nc2ccc(C#Cc3ccc(F)cc3)cc2[C@@H]2[C@H]1CCN2Cc1ccc2c(c1)OCO2 | 7 | 6 | 0.7
C/C=C/c1ccc(C2[C@H]3CNC[C@@H]2N3Cc2cc(F)ccc2F)cc1 (some centres not stated) | 21&4 | 16&15 | 4.6&-11
CCN1CC(=O)N2[C@H](CO)[C@H](c3ccc(-c4ccccc4F)cc3)[C@@H]2C1 | 12 | -1 | 13
Cc1cccc(-c2ccc([C@@H]3[C@@H](CO)N4CCCCN(Cc5ccncc5)C[C@@H]34)cc2)c1 | -6 | -1 | -5.0
O=C(NCCN1CCCC1)[C@@H]1[C@@H](CO)[C@@H]2Cn3c(cccc3=O)[C@@H]2N1Cc1ccccn1 | -6 | -8 | 2.4

In the list so far, 7 have fluorine.
SMILES | DUX4 txn inh | DUX4 txn inh difference | DUX4 txn inh control
COCCNC(=O)C[C@@H]1CC[C@@H]2[C@H](COC[C@H](O)CN2S(=O)(=O)c2ccccc2F)O1 | 0 | -7 | 6.7
Cn1cnc(S(=O)(=O)N2CCCCN3[C@@H](CO)[C@H](c4ccc(-c5ccccc5F)cc4)[C@@H]3C2)c1 | 2 | 3 | -1.1
O=C(Cc1ccccn1)N[C@H]1CC[C@H](CCNS(=O)(=O)c2cccc(F)c2)O[C@H]1CO | ? | nt | nt
N#C[C@@H]1[C@H](c2ccc(C#Cc3ccccc3F)cc2)[C@@H](CO)N1C(=O)C1CC1 | 1 | 0 | 1.6
OC[C@@H]1Nc2ccc(C#Cc3ccc(F)cc3)cc2[C@@H]2[C@H]1CCN2Cc1ccc2c(c1)OCO2 | 7 | 6 | 0.7
C/C=C/c1ccc(C2[C@H]3CNC[C@@H]2N3Cc2cc(F)ccc2F)cc1 (some centres not stated) | 21&4 | 16&15 | 4.6&-11
CCN1CC(=O)N2[C@H](CO)[C@H](c3ccc(-c4ccccc4F)cc3)[C@@H]2C1 | 12 | -1 | 13

Additional compounds follow:
SMILES | DUX4 txn inh | DUX4 txn inh difference | DUX4 txn inh control
CCCC#Cc1ccc([C@H]2[C@@H](CO)N(C(=O)NC(C)C)[C@H]2CNC(C)=O)cc1 | 2 | 2 | 0.1
COc1ccc2c3c([nH]c2c1)[C@@H](CO)N(C(=O)c1cnccn1)CC31CCN(C(=O)c2cnccn2)CC1 | 12 | -4 | 16
O=C(C[C@@H]1CC[C@@H]2[C@H](COC[C@@H](O)CN2C(=O)Nc2ccccc2)O1)NCCc1ccncc1 | 9 | 0 | 8.1
CNC[C@@H]1Oc2ccc(NC(=O)Nc3ccc(C(F)(F)F)cc3)cc2CC(=O)N([C@H](C)CO)C[C@H]1C | 5 | 4 | 1.5
O=C(CN1CCOCC1)N1CC[C@@H]2[C@H](CO)Nc3ccc(-c4ccccc4F)cc3[C@@H]21 | 5 | 4 | 1.8
COc1ccc(NC(=O)N2C[C@@H]3N[C@H](C2)C3c2ccc(-c3ccncc3)cc2)cc1 (some centres not stated) | 8 | -8 | 16
O=C(C[C@H]1CC[C@@H]2[C@H](COC[C@@H](O)CN2C(=O)c2ccccc2F)O1)N1CCOCC1 | 8 | -5 | 13
CO[C@@H](CN(C)S(=O)(=O)c1ccc(F)cc1)[C@H](C)CN([C@H](C)CO)S(=O)(=O)c1cccc(Cl)c1 | 2 | 1 | 1.1
O=S(=O)(c1ccccc1)N1CC[C@H]2[C@H](CO)Nc3ccc(Br)cc3[C@H]21 | 0 | 4 | -4.6
CNC[C@H]1Oc2cc(-c3ccc(C(=O)N(C)C)cc3)ccc2S(=O)(=O)N([C@H](C)CO)C[C@@H]1C | 0 | 1 | -1.3
Cc1noc(C)c1S(=O)(=O)N(C)C[C@H]1OCCCC[C@@H](C)Oc2ccc(NS(=O)(=O)c3cccs3)cc2C(=O)N([C@H](C)CO)C[C@@H]1C | -1 | 3 | -3.9
O=C(C[C@@H]1C=C[C@@H](NC(=O)Nc2cccc(F)c2)[C@H](CO)O1)NCC1CCCCC1 | -4 | -1 | -2.9
COc1ccc(NC(=O)Nc2cccc3c2O[C@@H](CN(C)C(=O)NC2CCCCC2)[C@@H](C)CN([C@H](C)CO)C3=O)cc1 | -1 | -2 | 0.6
COc1ccc(S(=O)(=O)N[C@H]2CC[C@@H](CCNC(=O)Cc3ccccn3)O[C@H]2CO)cc1 | 0 | 10 | -9.5
CO[C@@H]1CN(C)C(=O)c2ccc(NS(=O)(=O)c3ccccc3)cc2OC[C@H](C)N(C(=O)NC(C)C)C[C@@H]1C | 0 | 0 | 0.1
CN1CCN(C(=O)C[C@H]2CC[C@H]3[C@@H](COC[C@@H](O)CN3C(=O)c3ccc(F)cc3)O2)CC1 | -1 | -7 | 6.3
C[C@@H]1CCCCO[C@H](CN(C)C(=O)Nc2ccc3c(c2)OCO3)[C@H](C)CN([C@H](C)CO)C(=O)c2cc(NC(=O)C3CCCCC3)ccc2O1 | 8 | 8 | 0.6
COc1cccc(NC(=O)N(C)C[C@H]2OCc3ccccc3-c3ccccc3C(=O)N([C@@H](C)CO)C[C@H]2C)c1 | 8 | 11 | -3.3
O=C(NCC1CC1)[C@@H]1N[C@@H]2c3ccc(C4=CCCCC4)c(=O)n3C[C@@H]2[C@H]1CO | ? | nt | nt
CN1CCN(C(=O)C[C@H]2C=C[C@@H](NC(=O)Cc3ccccn3)[C@@H](CO)O2)CC1 | 1 | 0 | 1.7
COc1ccccc1-c1ccc2c(c1)O[C@H](CN(C)C(=O)Nc1cccc(F)c1)[C@H](C)CN([C@H](C)CO)S2(=O)=O | 2 | -3 | 5.1
C[C@H]1CN([C@@H](C)CO)C(=O)c2cccc(N(C)C)c2O[C@@H]1CN(C)Cc1ccncc1 | 2 | 1 | 0.6
CO[C@H]1CN(C)C(=O)c2cc(NC(=O)Nc3ccccc3F)ccc2OC[C@H](C)N(CCC(F)(F)F)C[C@@H]1C | -6 | -11 | 5.3
CN1C(=O)c2cc(NC(=O)c3cscn3)ccc2OC[C@@H]2O[C@H](CC(=O)N3CCOCC3)CC[C@H]21 | 3 | 2 | 0.9
CC(C)NC(=O)Nc1ccc2c(c1)C(=O)N([C@H](C)CO)C[C@H](C)[C@H](CN(C)C(=O)C1CCCCC1)OCCCC[C@@H](C)O2 | -2 | -5 | 2.3

Later entries.
SMILES | DUX4 txn inh | DUX4 txn inh difference | DUX4 txn inh control
Cc1ccc(S(=O)(=O)N2C[C@@H](O)COC[C@H]3O[C@@H](CC(=O)NCc4ccc5c(c4)OCO5)CC[C@@H]32)cc1 | 4 | 4 | -0.3
CN(C)CC(=O)Nc1ccc2c(c1)[C@@H]1C[C@H](CC(=O)NCc3ccc(-c4ccccc4)cc3)O[C@H](CO)[C@@H]1O2 | -7 | 6 | -13
O=C(C[C@@H]1CC[C@@H]2[C@H](COC[C@@H](O)CN2C(=O)Nc2ccc(Cl)cc2)O1)NCC1CCCCC1 | ? | nt | nt
CCNC(=O)C[C@@H]1CC[C@@H]2[C@H](COc3ccc(NS(C)(=O)=O)cc3C(=O)N2C)O1 | 0 | -2 | 1.3
C/C=C/c1ccc2c(c1)[C@@H]1[C@@H](CCN1S(=O)(=O)c1ccc(C)cc1)[C@@H](CO)N2 | 2 | 23 | -20
C/C=C/c1ccc([C@H]2[C@@H](CO)N(CC3CC3)C23CN(S(=O)(=O)CC)C3)cc1 | 5 | 9 | -3.3
Cc1cccc(S(=O)(=O)N[C@@H]2CC[C@H](CCNS(=O)(=O)c3ccccc3F)O[C@H]2CO)c1 | -6 | 0 | -5.2
COc1ccc2c3c([nH]c2c1)[C@@H](CO)N(C(=O)c1ccc(F)cc1)CC31CCN(C(=O)CC2CC2)CC1 | ? | nt | nt
C[C@H](CO)N1C[C@H](C)[C@@H](CN(C)C(=O)c2ccccc2)Oc2ncc(C#Cc3ccccc3)cc2C1=O | -4 | -1 | -3.5
COc1ccc(CN(C)C[C@H]2OCc3cnnn3CCCC(=O)N([C@@H](C)CO)C[C@@H]2C)cc1 | 2 | 3 | -0.7
CCCNC(=O)N1CC(=O)N2[C@@H](CO)[C@H](c3ccc(C#Cc4cccc(F)c4)cc3)[C@@H]2C1 | ? | nt | nt
CC(=O)N1CC(=O)N2[C@@H](CO)[C@@H](c3ccc(-c4ccc(C#N)cc4)cc3)[C@@H]2C1 | 2 | -3 | 4.3
CCCNC(=O)N1CCC2(CC1)CN(C(=O)c1ccccc1)[C@H](CO)c1[nH]c3cc(OC)ccc3c12 | 0 | -10 | 9.6
Cc1noc(C)c1NC(=O)Nc1ccc2c(c1)C(=O)N(C)[C@H]1CC[C@@H](CC(=O)N[C@@H]3CCN(Cc4ccccc4)C3)O[C@@H]1CO2 | 0 | -1 | 0.9
COc1cccc(S(=O)(=O)Nc2ccc3c(c2)[C@@H]2C[C@H](CC(=O)NCc4ccccc4F)O[C@@H](CO)[C@@H]2O3)c1 | -9 | 1 | -10
CCCNC(=O)C[C@@H]1C[C@@H]2c3cc(NC(=O)COC)ccc3O[C@@H]2[C@H](CO)O1 | 5 | 1 | 3.7
CO[C@H](CN(C)C(=O)Nc1ccc(C(F)(F)F)cc1)[C@H](C)CN(Cc1ccccc1Cl)[C@H](C)CO | 3 | 2 | 1.3
COc1ccc(S(=O)(=O)Nc2ccc3c(c2)C(=O)N([C@@H](C)CO)C[C@@H](C)[C@H](CN(C)C(=O)CCC(F)(F)F)OCCCC[C@H](C)O3)cc1 | 0 | -2 | 1.9
N#C[C@@H]1[C@@H](c2ccc(-c3ccncc3)cc2)[C@@H](CO)N1C(=O)C1CCCC1 | 1 | -2 | 3.2
O=C(c1ccc(F)cc1)N1CC(=O)N2[C@H](CO)[C@H](c3ccc(C#CC4CCCCC4)cc3)[C@H]2C1 | ? | nt | nt
